Screens deposited in PubChem by ICCB-Longwood Screening Facility, Harvard Medical School.
UCH37 DUB inh = blocks the human deubiquitinase UCH37; inhibition, % (concentration not given with the values); purified proteasome/UCH37, Ub-AMC cleavage fluorescence; Q9Y5K5; actives 0.33% (n = 330,000); AID 588478;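 active means mean of two replicates above 20%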;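 further: 0% = compound-free wells with enzyme and 100% = wells lacking proteasome; stock transfer was 100 nL into about 20 µL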
Target sequence (Q9Y5K5 whole entry, looked up): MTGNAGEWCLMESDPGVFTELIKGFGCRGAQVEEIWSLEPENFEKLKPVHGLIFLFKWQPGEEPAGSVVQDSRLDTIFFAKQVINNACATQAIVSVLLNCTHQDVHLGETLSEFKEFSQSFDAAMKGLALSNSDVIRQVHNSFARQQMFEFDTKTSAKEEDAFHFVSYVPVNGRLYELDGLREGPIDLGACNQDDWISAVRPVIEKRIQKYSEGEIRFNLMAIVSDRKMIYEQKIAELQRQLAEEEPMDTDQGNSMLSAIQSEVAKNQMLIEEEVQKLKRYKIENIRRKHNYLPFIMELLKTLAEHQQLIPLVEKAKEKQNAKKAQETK
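Assay system: Proteasome-bound UCH37. Buffer or medium: pH 7.4 Tris-HCl (50 mM) with ovalbumin, ATP-MgCl2, DTT. Incubation: 30 min preincubation with enzyme, 25 min cleavage at room temperature. Measured by: fluorescence, ex 355 nm, em 460 nm. Read-out basis: percent inhibition. Control set: wells without proteasome as full block, compound-free enzyme plus substrate as uninhibited.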
Ecoli growth = inhibitors of Escherichia coli growth; OD600, 23 h; hits give low values; OD600 absorbance (no concentration beside the values); actives 0.21% (n = 330,000);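 active means OD600 absorbance below the run mean of sample wells minus 3.6 SD, in any replicate, cut at about 0.56 in these data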;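 further: stock transfer was 300 nL into about 60 µL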
Active calls of the source: *; . = not tested or not shown; & = joins results of further samples. A portion of the library, so the mix of outcomes need not match the whole.

Compound,UCH37 DUB inh,Ecoli growth
COC1=CC2C3=C(C(NC(C)=O)CCc4cc(OC)c(OC)c(OC)c43)C2C1=O (stereo not drawn),.,0.671
COC(=O)C1=C(c2ccc(-c3ccccc3)c(F)c2)CC2CCC1N2C(=O)NCCO (stereo not drawn),.,0.669
CC(C)c1oc(=O)cc2c1C(O)C1OC(=O)[C@@]3(C)CCC(O)[C@@]2(C)C13 (stereo partly drawn),.,0.617
C=CCN1CC[C@@]2(C)c3cc(O)ccc3CC1C2C (stereo partly drawn),.,0.718
COC(=O)C1=C(c2ccccc2)CC2CCC1N2C(=O)NCCNC(C)=O (stereo not drawn),.,0.666
COc1ccc(CNC(=O)C=Cc2ccc3[nH]cc(CCN(C)C)c3c2)cc1,.,0.663
COC(=O)C1=C(c2ccc(OC)c(OC)c2)CC2CCC1N2C(=O)N1CCc2cc(OC)c(OC)cc2C1 (stereo not drawn),.,0.678
COC(=O)C1=C(c2c(C)noc2C)CC2CCC1N2C(=O)N1CCC(O)(c2ccc(Cl)cc2)CC1 (stereo not drawn),.,0.671
C[C@]12CCC(O)CC1=CCC1C2CC[C@]2(C)C(=O)CCC12 (stereo partly drawn),.,0.692
COC(=O)C1=C(c2cccc(C#N)c2)CC2CCC1N2C(=O)N1CCC(C)CC1 (stereo not drawn),.,0.716
COC(=O)C1=C(c2ccc(F)cc2OCc2ccccc2)CC2CCC1N2C(=O)NCCOc1ccccc1Cl (stereo not drawn),.,0.646
COC(=O)C1=C(c2ccc(F)cc2OCc2ccccc2)CC2CCC1N2C(=O)NCc1ccco1 (stereo not drawn),.,0.626
Cc1cc(C)cc(N2C(=O)NC(=O)C(=Cc3cccn3-c3ccc(Cl)cc3)C2=O)c1,.,0.725
COC(=O)C1=C(c2ccc(C(C)=O)cc2)CC2CCC1N2C(=O)NCc1ccc2c(c1)OCO2 (stereo not drawn),.,0.65
COC(=O)C1=C(c2ccc3ccccc3c2)CC2CCC1N2C(=O)NCCO (stereo not drawn),.,0.702
COC(=O)C1=C(c2ccc(C(C)=O)cc2)CC2CCC1N2C(=O)N1CCC(C)CC1 (stereo not drawn),.,0.648
CC1OC(OC2C=C3CCC4C(CC[C@]5(C)C(c6ccc(=O)oc6)CC[C@]45O)[C@@]3(C)CC2)C(O)C(O)C1O (stereo partly drawn),.,0.653
COC(=O)C1=C(c2ccccc2OCc2ccccc2)CC2CCC1N2C(=O)NCc1ccc(Cl)cc1 (stereo not drawn),.,0.751
COC(=O)C1=C(c2ccc(OC(F)(F)F)cc2)CC2CCC1N2C(=O)NCc1ccc(F)cc1 (stereo not drawn),.,0.684
CCOc1ccc(N2C(=O)NC(=O)C(=Cc3ccc(N4CCCCC4)o3)C2=O)cc1,.,0.703

A stretch from the list above, for reference:
Compound,UCH37 DUB inh,Ecoli growth
COC1=CC2C3=C(C(NC(C)=O)CCc4cc(OC)c(OC)c(OC)c43)C2C1=O (stereo not drawn),.,0.671
COC(=O)C1=C(c2ccc(-c3ccccc3)c(F)c2)CC2CCC1N2C(=O)NCCO (stereo not drawn),.,0.669

Next section.
Compound,UCH37 DUB inh,Ecoli growth
COC(=O)C1=C(c2ccc(S(C)(=O)=O)cc2)CC2CCC1N2C(=O)NCC1CC1 (stereo not drawn),.,0.68
CCCCC(C)=CC(NP(=O)(c1ccccc1)c1ccccc1)c1ccccc1 (stereo not drawn),.,0.665
COC(=O)C1=C(c2cc3ccccc3o2)CC2CCC1N2C(=O)NC1CCCCC1 (stereo not drawn),.,0.695
CN1CCc2cc(O)cc3c2C1Cc1ccc(O)c(O)c1-3 (stereo not drawn),.,0.669
COC(=O)C1=C(c2ccc(F)cc2F)CC2CCC1N2C(=O)N1CCOCC1 (stereo not drawn),.,0.714
COC(=O)C1=C(c2cc3ccccc3s2)CC2CCC1N2C(=O)NCC1CC1 (stereo not drawn),.,0.676
COC(=O)C1=C(c2c(C)noc2C)CC2CCC1N2C(=O)N1CCCC1 (stereo not drawn),.,0.619
CC(Cc1ccccc1)[N+]([O-])=Cc1ccc(C(F)(F)F)cc1 (stereo not drawn),.,0.716
COCCNC(=O)N1C2CCC1C(C(=O)OC)=C(c1ccc(OC)c(OC)c1)C2 (stereo not drawn),.,0.703
CC(C)CC(NP(=O)(O)OC1OC(C)C(O)C(O)C1O)C(=O)NC(Cc1c[nH]c2ccccc12)C(=O)O (stereo not drawn),.,0.705
COC(=O)C1=C(c2ccc(C(C)=O)cc2)CC2CCC1N2C(=O)N1CCC(O)CC1 (stereo not drawn),.,0.711
CCN1C[C@]2(COC)C(O)CC(OC)[C@@]34C5C[C@]6(O)C(OC)C(O)[C@@](OC(C)=O)(C5C6OC(=O)c5ccccc5)C(C(OC)C23)C14 (stereo partly drawn),.,0.724
COC(=O)C1=C(c2ccccc2OCc2ccccc2)CC2CCC1N2C(=O)NCCN1CCOCC1 (stereo not drawn),.,0.677
COc1cc2c3cc1Oc1cc(ccc1O)CC1c4c(cc(OC)c(O)c4Oc4cccc(c4)CC3N(C)CC2)CC[N+]1(C)C (stereo not drawn),.,0.696
COC(=O)C1=C(c2cccc(OC)c2OC)CC2CCC1N2C(=O)NCCNC(C)=O (stereo not drawn),.,0.71
COC(=O)C1=C(c2ccc(OC(F)(F)F)cc2)CC2CCC1N2C(=O)NCCc1ccccc1 (stereo not drawn),.,0.698
COC(=O)C1=C(c2cccc(C#N)c2)CC2CCC1N2C(=O)NCCOc1ccccc1 (stereo not drawn),.,0.691
COC(=O)C1=C(c2cc3ccccc3s2)CC2CCC1N2C(=O)N1CCCC1 (stereo not drawn),.,0.715
CCCN1CCc2cc(O)cc3c2C1Cc1ccc(O)c(O)c1-3 (stereo not drawn),.,0.652
CCOC(=O)[C@]12Cc3cc4c(cc3C1N(Cc1ccccc1)C(=O)c1ccccc12)OCO4 (stereo partly drawn),.,0.738

Carrying on:
Compound,UCH37 DUB inh,Ecoli growth
COC(=O)C1=C(c2ccc(OCc3ccccc3)cc2)CC2CCC1N2C(=O)NCc1ccc([N+](=O)[O-])cc1 (stereo not drawn),.,0.739
COC(=O)C(N)CCCN=C(N)N[N+](=O)[O-] (stereo not drawn),.,0.721
COC(=O)C1=C(c2ccc(Cl)c(C(F)(F)F)c2)CC2CCC1N2C(=O)NCCOc1ccc(OC)cc1 (stereo not drawn),.,0.702
COC(=O)C1=C(c2ccc(F)cc2OCc2ccccc2)CC2CCC1N2C(=O)NCc1ccc2[nH]ccc2c1 (stereo not drawn),.,0.738
COC(=O)C1=C(c2ccccc2OCc2ccccc2)CC2CCC1N2C(=O)NC1CCN(Cc2ccccc2)CC1 (stereo not drawn),.,0.662
Ic1ccccc1CNC1C2CCN(CC2)C1C(c1ccccc1)c1ccccc1 (stereo not drawn),.,0.7
CCCC=C(CCC)C(NP(=O)(c1ccccc1)c1ccccc1)c1ccccc1 (stereo not drawn),.,0.694
CCOC(=O)[C@]12Cc3cc(C)ccc3C1N(Cc1ccccc1)C(=O)c1ccccc12 (stereo partly drawn),.,0.715
CCCNC(=O)N1C2CCC1C(C(=O)OC)=C(c1ccc(OC(F)(F)F)cc1)C2 (stereo not drawn),.,0.688
CC1OC(OC2CC(O)[C@]3(CO)C4C(O)C[C@]5(C)C(C6COC(=O)C6)CC[C@]5(O)C4CC[C@]3(O)C2)C(O)C(O)C1O (stereo partly drawn),.,0.7&0.66
CC(C)CC(NC(=O)C1CCCN1C(=O)C(N)Cc1ccc(O)cc1)C(=O)NCC(N)=O (stereo not drawn),.,0.706
COC(=O)C1=C(c2cc3ccccc3o2)CC2CCC1N2C(=O)N1CCCC1 (stereo not drawn),.,0.678
CCN1C[C@]2(C)CCC(O)[C@@]34C5CC6C(OC)C[C@](O)(C(CC23)C14)C5C6O (stereo partly drawn),.,0.718
COC(=O)C1=C(c2ccc(F)cc2F)CC2CCC1N2C(=O)NC1Cc2ccccc2C1 (stereo not drawn),.,0.635
COC(=O)C1=C(c2ccc(OC)c(OC)c2)CC2CCC1N2C(=O)NCCOc1ccc(OC)cc1 (stereo not drawn),.,0.68
COC(=O)C1=C(c2cccc(OCc3ccccc3)c2)CC2CCC1N2C(=O)NCc1ccc([N+](=O)[O-])cc1 (stereo not drawn),.,0.697
COC1=C(C)C(=O)O[C@]12C(=O)C(C)=C1CCCCN3C(C4CC(C)C(=O)O4)CC[C@]132 (stereo partly drawn),.,0.686
COC(=O)C1=C(c2ccc(F)cc2OCc2ccccc2)CC2CCC1N2C(=O)NCc1cccc(C(F)(F)F)c1 (stereo not drawn),.,0.728
CCCN1CCCC2Cc3[nH]ncc3CC21 (stereo not drawn),.,0.706
CN(C)C1C(=O)C(C(N)=O)=C(O)[C@@]2(O)C(=O)C3=C(O)c4c(O)cccc4[C@@](C)(O)C3C(O)C12 (stereo partly drawn),.,0.0695*

Of the compounds above, these contain sulfur:
Compound,UCH37 DUB inh,Ecoli growth
COC(=O)C1=C(c2ccc(S(C)(=O)=O)cc2)CC2CCC1N2C(=O)NCC1CC1 (stereo not drawn),.,0.68
COC(=O)C1=C(c2cc3ccccc3s2)CC2CCC1N2C(=O)NCC1CC1 (stereo not drawn),.,0.676
COC(=O)C1=C(c2cc3ccccc3s2)CC2CCC1N2C(=O)N1CCCC1 (stereo not drawn),.,0.715

Carrying on:
Compound,UCH37 DUB inh,Ecoli growth
COC(=O)C1=C(c2cccc(C#N)c2)CC2CCC1N2C(=O)NCCNC(C)=O (stereo not drawn),.,0.684
CC(=O)C1CCC2C3CCC4CC(O)CC[C@]4(C)C3C(=O)C[C@]12C (stereo partly drawn),.,0.663
COc1ccc(-n2c(C=C3C(=O)Nc4ccccc43)nc3ccccc3c2=O)cc1,.,0.706
CCCNC(=O)N1C2CCC1C(C(=O)OC)=C(c1ccccc1)C2 (stereo not drawn),.,0.68
COC(=O)C1=C(c2ccc(C(C)=O)cc2)CC2CCC1N2C(=O)NCc1ccc(F)cc1 (stereo not drawn),.,0.7
OC(c1ccc(F)cc1)(c1ccc(F)cc1)C1CCCN1 (stereo not drawn),.,0.721
COC(=O)C1=C(c2ccccc2OCc2ccccc2)CC2CCC1N2C(=O)NCc1ccccc1 (stereo not drawn),.,0.75
C=CC[N+]1(C)CC[C@]23c4c5ccc(O)c4OC2C(=O)CC[C@@]3(O)C1C5 (stereo partly drawn),.,0.696
COC(=O)C1=C(c2cccc(C#N)c2)CC2CCC1N2C(=O)NC(C)C (stereo not drawn),.,0.708
COC(=O)C1=C(c2ccc(Cl)c(C(F)(F)F)c2)CC2CCC1N2C(=O)NC1CC1 (stereo not drawn),.,0.701
Cc1ccc(-n2nc(C)c(C3C(C#N)=C(N)Oc4c3c(=O)oc3ccccc43)c2Cl)cc1 (stereo not drawn),.,0.721
COC(=O)C1=C(c2ccc(OC)c(OC)c2)CC2CCC1N2C(=O)NC1CC1 (stereo not drawn),.,0.722
Cc1ccc(C=C2C(=O)NC(=O)N(CCc3ccc(F)cc3)C2=O)o1,.,0.689
CC(C)c1oc(=O)cc2c1C(O)C1OC(=O)[C@@]3(C)CC(O)C(O)[C@@]2(C)C13 (stereo partly drawn),.,0.695
COC(=O)C1=C(c2c(C)noc2C)CC2CCC1N2C(=O)NC1CCCCC1 (stereo not drawn),.,0.703
COC(=O)C1=C(c2ccc(OC(F)(F)F)cc2)CC2CCC1N2C(=O)NC1CC1 (stereo not drawn),.,0.688
COC(=O)C1=C(c2cccc(OCc3ccccc3)c2)CC2CCC1N2C(=O)NCc1ccc(Br)cc1 (stereo not drawn),.,0.736
C=CCN1CC(C)N(C(c2ccc(C(=O)N(CC)CC)cc2)c2cccc(OC)c2)CC1C (stereo not drawn),.,0.646
CCOC(=O)c1c(N=CC2C(=O)NC(=S)NC2=O)sc2c1CCC2,3.8,0.704
CNC(=O)ON=C(N)Cc1csc2ccccc12,0.9,0.615

Continuation.
Compound,UCH37 DUB inh,Ecoli growth
CCCCCC(=NO)c1c(C)[nH]c2ccccc12,0.7,0.645
CN1CCN(c2ccc([N+](=O)[O-])c(NN=C3CN4CCC3CC4)c2)CC1,8.0,0.681
C#C[C@@]1(O)CCC2C3CCC4=CC(=NOCC(=O)NC(C(=O)O)C(C)O)CC[C@]4(C)C3CC[C@@]21C (stereo partly drawn),4.1,0.682
O=C(CSC1c2ccccc2-c2ccccc21)NN=Cc1ccccc1C(=O)O,2.3,0.665
CC12CN3CCN(CC(C3)C1=NNC(N)=O)C2,3.3,0.669
ON=C1CCC2CN(C3CCCCC3)CC2C1 (stereo not drawn),-1.1,0.691
CCOC(=O)c1cc(CC)sc1N=CC1C(=O)NC(=S)NC1=O,4.8,0.694
CC1CCCC=CC2CC(O)CC2C(O)C=CC(=O)O1 (stereo not drawn),-1.0,0.683&0.695&0.728
CN(C)c1ccc(/C=C2/C(=NO)C3CCN2CC3)cc1,8.8,0.682
COc1cc(C(=O)NN=CC23CC[C@@H](O)CC2(O)CC[C@@H]2[C@@H]3CCC3(C)C(C4=CC(=O)OC4)CCC23O)ccc1O (stereo partly drawn),3.5,0.681
O=C1NC(=O)N(CCNc2ncc(C(F)(F)F)cc2Cl)C(=O)C1C=NOCc1c(F)cccc1Cl (stereo not drawn),-2.6,0.701
